Assay outcomes (PubChem)
MLL AF4-AF9 inh: inhibitors of AF4 peptide binding to AF9, primary screen, biochemical, AlphaScreen, biotin-AF4 peptide, FLAG-AF9, single point; Protein AF-9 (Homo sapiens), P42568; inhibition, % at 10 µM; hit rate 0.47% among 350,000; AID 651704, 2012;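 active = every replicate reaching a set inhibition limit, whatever the replicate mean, cut at about 25% in these data; inconclusive = mean inhibition reaches that limit but some replicates miss it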;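 also: 0% = plate neutral control median and 100% = total signal loss; the record names both 10 and 1 µM as test concentration; the first replicate is given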
Target sequence (P42568 whole entry, looked up): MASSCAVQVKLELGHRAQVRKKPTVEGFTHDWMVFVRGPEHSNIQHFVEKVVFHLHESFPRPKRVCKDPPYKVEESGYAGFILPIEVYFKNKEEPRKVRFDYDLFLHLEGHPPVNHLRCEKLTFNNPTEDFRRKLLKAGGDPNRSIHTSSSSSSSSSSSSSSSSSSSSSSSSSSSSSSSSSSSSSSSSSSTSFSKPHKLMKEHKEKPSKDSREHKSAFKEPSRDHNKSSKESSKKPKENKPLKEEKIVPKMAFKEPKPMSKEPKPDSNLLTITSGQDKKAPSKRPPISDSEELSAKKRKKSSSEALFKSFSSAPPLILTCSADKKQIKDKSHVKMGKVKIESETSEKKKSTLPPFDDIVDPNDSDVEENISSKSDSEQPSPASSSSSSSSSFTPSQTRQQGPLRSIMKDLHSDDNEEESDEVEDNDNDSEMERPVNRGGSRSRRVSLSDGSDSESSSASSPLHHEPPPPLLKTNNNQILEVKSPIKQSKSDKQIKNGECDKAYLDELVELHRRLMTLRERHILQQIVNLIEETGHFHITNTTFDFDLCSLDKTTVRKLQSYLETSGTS
Vif A3G: inhibitors of Vif binding to APOBEC3G peptide, primary screen, biochemical, TR-FRET, GST-Vif 1-94, biotin-A3G peptide, dose response retest (AID 1117319) | Virion infectivity factor (Human immunodeficiency virus type 1 group M subtype B (isolate … | TR-FRET GST-Vif / biotin-A3G peptide binding; higher % means a stronger effect; test concentration not given here; strong numbers were not always called active | inhibition, %; hits with a dose series show IC50 in µM | hit rate 0.57% among 260,000;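 active = above the screen mean plus three standard deviations and confirmed in dose response; inconclusive = results disagree or hit not tested in dose response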;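 also: Vif residues 1-94 fused to GST binding biotinylated APOBEC3G peptide 110-148; 0% = full assay without inhibitor and 100% = GST in place of GST-Vif; retest series ran down from 100 µM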
FGF22 binding: binders of human FGF22 protein, primary screen, FGF22 synaptogenesis inhibitor project, biophysical, thermal shift, single point; calls only at 9.99 µM; hit rate 1.5% among 340,000; Fibroblast growth factor 22 (Homo sapiens), Q9HCT0; recombinant FGF22 thermal shift, SYPRO orange fluorescence; percent of sucrose octasulfate shift, DMSO zero;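 active = melting point raised past a set limit in the mean and every replicate; inconclusive = no clear call; three in four hits are not shown here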
Target sequence (Q9HCT0 whole entry, looked up): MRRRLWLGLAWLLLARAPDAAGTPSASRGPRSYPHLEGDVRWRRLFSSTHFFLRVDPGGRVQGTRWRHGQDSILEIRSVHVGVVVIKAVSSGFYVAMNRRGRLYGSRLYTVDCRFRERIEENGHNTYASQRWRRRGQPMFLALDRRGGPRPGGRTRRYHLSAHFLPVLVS
HNF4A DNA FP: change in binding of human HNF4A to DNA, primary screen, biochemical, fluorescence polarization, FITC-DNA | Hepatocyte nuclear factor 4-alpha (Homo sapiens), P41235 | 1 h | activity change, % at 10 µM | hit rate 0.3% among 360,000 | AID 1224865, 2016; in the data active = activity change above about 30%, passing the limit was not always enough;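 also: controls were the assay level and a saturating level of protein; the project sought stronger binding though the title names inhibitors; some compounds called inactive have numbers as strong as hits; positive values seem to mean higher polarization but the record does not say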
rRNA inh HTS: reduced GFP signal of wild-type E. coli, primary screen, bacterial rRNA inhibitor project, GFP/RFP fluorescence, OD600, single point | E. coli WT GFP vs humanized-ribosome RFP mutants, 24 h; active compounds read low; DMSO median 0, no signal -100 | GFP signal change (wild-type ribosome), % (concentration not given with the values) | hit rate 1.6% among 350,000;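 active = significant combined selectivity score with lowered wild-type GFP, culture density cut under 30%, mutant RFP and density less affected; inactive = any of these conditions unmet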; also: one replicate is shown; some compounds called inactive have numbers as strong as hits
ALR H2O2 inh: inhibitors of human ALR sulfhydryl oxidase, primary screen, biochemical, H2O2 detection, HRP-luminol luminescence, single point | FAD-linked sulfhydryl oxidase ALR (Homo sapiens), P55789 | purified ALR, DTT oxidation | inhibition, % (concentration not given with the values) | hit rate 3.8% among 290,000 | AID 485317, 2010;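 active = mean and each replicate at 75% or more; inconclusive = only one of the two met; inactive = neither met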;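 also: stock transfer was 7.5 nL into about 7.5 µL; 0% = neutral wells and 100% = wells with inactivated enzyme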
Target sequence (P55789 whole entry, looked up): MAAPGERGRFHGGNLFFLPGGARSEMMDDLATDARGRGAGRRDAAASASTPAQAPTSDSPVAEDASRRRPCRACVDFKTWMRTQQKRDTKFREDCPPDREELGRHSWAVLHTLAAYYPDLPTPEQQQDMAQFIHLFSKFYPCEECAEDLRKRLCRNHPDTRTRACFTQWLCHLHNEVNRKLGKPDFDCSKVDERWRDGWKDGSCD
E coli growth: E. coli growth inhibition, primary screen, OD600 | Escherichia coli growth, 23 h; active compounds read low | hit rate 0.21% among 330,000 | OD600 absorbance (no concentration beside the values);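 active = OD600 absorbance below the run mean of sample wells minus 3.6 SD, in any replicate, cut at about 0.56 in these data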;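 also: stock transfer was 300 nL into about 60 µL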
rRNA inh HTS OD600: also measured in rRNA inh HTS; calls as there; OD600 change, %; measured here: OD600 growth;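 optical density of the mix in the first replicate; 0 = DMSO median and -100 = no signal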
rRNA inh HTS RFP: recorded beside rRNA inh HTS, whose call it bears; RFP signal change, %; measured here: RFP humanized mutant strains;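 first replicate; 0 = DMSO median and -100 = no signal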
* hit, by the source's call; i = inactive; ? = inconclusive; · = not tested or not shown; & = joins results of further samples.

SMILES	MLL AF4-AF9 inh	Vif A3G	FGF22 binding	HNF4A DNA FP	rRNA inh HTS	rRNA inh HTS OD600	rRNA inh HTS RFP	ALR H2O2 inh	E coli growth
CC(C)CCNC(=O)c1c(CSc2ccccc2)noc1C(=O)NCc1ccccc1	-7.9	·	i	-0.4	9	9	-0.1	1	0.72
Cc1c(C(=O)OCC(=O)N(CC(C)C)c2c(N)n(Cc3ccccc3)c(=O)[nH]c2=O)oc2ccccc12	-0.5	5%	i	2.9	7	11	-1.1	·	0.66
Cc1ccc(S(=O)(=O)N(C)C[C@@H]2Oc3ncc(-c4ccncc4)cc3C(=O)N([C@H](C)CO)C[C@@H]2C)cc1	-2.1	·	i	·	3	3	-1.2	·	·
CCCCn1c(N)c(N(CCC(C)C)C(=O)c2ccc(C)c(S(=O)(=O)N3CCOCC3)c2)c(=O)[nH]c1=O	-8.9	-3%	i	-0.9	4	5	-0.8	-4	0.63
C[C@H](CO)N1C[C@H](C)[C@H](CN(C)C(=O)Cc2cccnc2)Oc2cc(-c3cncnc3)ccc2S1(=O)=O	-7.2	·	i	·	-2	0	4.0	·	·
COCCNC(=O)CN1CCC(NC(=O)C(C)(C)C)CC1	-13	-1%	·	1.7	8	9	0.1	-5	0.7
Cc1ccccc1NS(=O)(=O)c1cc2c(cc1C)NC(=O)CO2	10	·	i	0.1	-13	-11	8.7	·	0.78
Cc1cc(S(=O)(=O)Nc2ccc(C(=O)NCC(c3ccco3)N3CCCCC3)cc2)ccc1F (stereo not drawn)	1.1	4%	·	5.0	-12	-17	-2.2	·	0.65
Cc1cc(C)nc(SC/C=C/c2ccccc2)n1	2.3	·	i	-1.9	-4	-5	-7.0	-12	0.66
C[C@H]1CN([C@@H](C)CO)C(=O)c2cc(NC(=O)C3CC3)ccc2O[C@@H]1CN(C)S(=O)(=O)c1cn(C)cn1	-1.6	·	i	·	-1	5	0.9	·	·
C[C@@H]1CN([C@H](C)CO)C(=O)c2cc(NS(=O)(=O)c3cccs3)ccc2O[C@H]1CN(C)Cc1ccc(Cl)c(Cl)c1	0.6	·	i	·	-7	-9	1.8	·	·
CC(=O)c1ccc2c(c1)Nc1ccccc1S2	·	16%	·	1.3	·	·	·	58	0.77
C[C@H]1CN([C@@H](C)CO)C(=O)Cc2cc(NC(=O)CCN3CCOCC3)ccc2O[C@@H]1CN(C)S(=O)(=O)c1ccccc1	2.0	·	i	·	0	4	-0.9	·	·
C[C@@H]1CN([C@@H](C)CO)C(=O)c2cc(NC(=O)c3ccncc3)ccc2O[C@@H](C)CCCCO[C@@H]1CN(C)C(=O)NC1CCCCC1	-3.5	·	i	·	-1	4	0.1	·	·
O=C(CN1C(=O)c2ccccc2C1=O)Nc1ccccc1C(=O)N1CCCC1	·	3%	·	3.6	·	·	·	-9	0.65
O=C(c1cnc(Cl)c(Cl)c1)N1CCN(S(=O)(=O)c2ccc(F)cc2)CC1	-2.1	·	i	4.5	9	11	0.8	1	0.69
CC(Sc1nnc2ccccn12)C(=O)Nc1ccc2c(c1)OCCO2 (stereo not drawn)	0.0	-3%	i	1.1	12	2	0.0	-8	0.7
CC(C)CC#Cc1ccc2c(c1)O[C@@H](CN(C)Cc1ccncc1)[C@H](C)CN([C@H](C)CO)S2(=O)=O	2.1	·	i	·	-14	-19	11	·	·
COc1ccccc1N1CCN(/N=C/c2cc(Br)ccc2F)CC1	17	·	i	4.7	-9	0	-0.4	1	·
CCCC(=O)C1=C(O)C(C(=O)OC)C(C)(C)CC1=Nc1ccccc1 (stereo not drawn)	·	9%	·	0.1	·	·	·	·	0.71
O=C(NCc1ccco1)c1ccc(N2CCOCC2)c([N+](=O)[O-])c1	2.6	·	i	0.2	11	4	-1.2	-2	0.72
CCCN(CC(=O)Nc1ccccc1C)C(=O)COc1c(C)cccc1C	5.3	9%	i	1.9	-3	-19	-2.1	-3	0.7
COc1ccc(Cl)cc1NS(=O)(=O)c1cc(Br)cnc1N	-2.6	·	i	1.9	-3	-21	-0.5	3	0.63
O=[N+]([O-])c1cccc(COc2cccc(CN3CCCC3)c2)c1	0.4	·	i	0.9	9	7	-0.7	·	·
Cc1cccc(CCNC(=O)c2oc3c(C)c(C)ccc3c2C)n1	1.3	·	i	-7.9	-23	-19	-2.5	·	0.68

Single records, from the list above. Screens in order: MLL AF4-AF9 inh | Vif A3G | FGF22 binding | HNF4A DNA FP | rRNA inh HTS | rRNA inh HTS OD600 | rRNA inh HTS RFP | ALR H2O2 inh | E coli growth
`Cc1cc(C)nc(SC/C=C/c2ccccc2)n1` reads 2.3 | · | i | -1.9 | -4 | -5 | -7.0 | -12 | 0.66
`COc1ccc(Cl)cc1NS(=O)(=O)c1cc(Br)cnc1N` reads -2.6 | · | i | 1.9 | -3 | -21 | -0.5 | 3 | 0.63

Next results:
SMILES	MLL AF4-AF9 inh	Vif A3G	FGF22 binding	HNF4A DNA FP	rRNA inh HTS	rRNA inh HTS OD600	rRNA inh HTS RFP	ALR H2O2 inh	E coli growth
CCOC(=O)c1c(C)[nH]c(C)c1C(=O)COC(=O)c1cccs1	9.6	-5%	i	7.0	-17	-24	7.6	0	0.71
O=C(N/C(=C/c1ccco1)C(=O)N1CCc2ccccc21)c1ccco1	·	?	i	-0.1	21	0	6.9	-5	0.69
O=C(C[C@@H]1CC[C@H]2[C@@H](COC[C@@H](O)CN2CC2CC2)O1)NCc1ccc(Cl)cc1	-1.3	·	i	·	4	1	-2.9	·	·
COc1cc2c(cc1OC)C(C)N(CCN1C(=O)c3ccccc3C1=O)CC2 (stereo not drawn)	-0.9	-1%	i	1.2	14	20	-0.8	3	0.65
N#C[C@H]1[C@H](c2ccccc2)[C@H](CO)N1C(=O)CCN1CCCCC1	-2.9	·	i	·	6	19	-1.1	·	·
CC(CN1CCN(c2ccccc2)CC1)c1ccccc1 (stereo not drawn)	·	13%	·	-3.7	·	·	·	98*	0.61
C=C[C@@H]1c2c(F)cccc2N(S(=O)(=O)c2ccc(C)cc2)[C@H](c2ccc(OC(C)=O)cc2)C1(C#N)C#N	-3.5	·	i	2.2	6	-2	-6.6	0	·
CCC(C(=O)NC1CCCC1)N(C(=O)Cn1nnc(-c2ccc(C)cc2)n1)C1CCCC1 (stereo not drawn)	·	1%	·	0.9	·	·	·	-18	0.7
C[C@H](CO)N1C[C@H](C)[C@@H](CN(C)Cc2ccncc2)OCCCC[C@H](C)Oc2ccc(NC(=O)CCCN(C)C)cc2C1=O	-2.8&-0.3&0.3	·	i	1.4	0&3	-4&17	-1.3&8.1	·	·
CCn1cc(CN2CCC(C(=O)Nc3ccc(Oc4ccccc4)nc3)CC2)cn1	-5.3	1%	i	5.1	·	·	·	-1	0.69
Cc1cccc(C)c1NC(=O)C(NC(=O)c1ccccn1)c1ccc([N+](=O)[O-])cc1 (stereo not drawn)	·	0%	·	-1.1	·	·	·	-11	0.71
Cc1ccc(NC(=O)CN(C)S(=O)(=O)c2cccc3nsnc23)cc1C	·	-3%	·	-2.7	·	·	·	·	0.71
CN1c2ccccc2N(C)C1c1ccc2c(c1)OCO2	·	1%	·	-1.7	·	·	·	-11	0.72
CC1CCc2c(sc(NC(=O)CCC(=O)O)c2C(=O)NC2CC2)C1 (stereo not drawn)	0.2	·	i	1.1	-5	0	0.1	-22	0.74
Cc1cccc(C)c1N(CC(=O)N(C)Cc1ccccc1)S(C)(=O)=O	-1.2	·	i	2.0	-3	-11	0.5	0	0.71
COc1ccc(NC(=O)/C=C/c2ccco2)cn1	0.3	2%	i	-5.9	22	33	10	0	0.66
CC1CC(C)CN(C(=O)c2ccc3c(c2)N(Cc2ccccc2)CCS3)C1 (stereo not drawn)	·	10%	·	-0.3	·	·	·	·	0.78
CC(C)CC#Cc1ccc2c(c1)O[C@@H](CN(C)C(=O)c1cnccn1)[C@H](C)CN([C@@H](C)CO)S2(=O)=O	1.5	·	i	·	-5	-22	1.3	·	·
Cc1nc(C)c(Cc2ccccc2Cl)c(=O)[nH]1	5.2	5%	i	1.3	5	-1	-6.2	·	0.66
COc1cc2c3nnc(-c4ccc(F)cc4)c-3cn(Cc3cccc(F)c3)c2cc1OC	·	·	·	115*	·	·	·	-4	0.74
COC(=O)c1ccc(NC(=O)C2CCCN2C(=O)OCc2ccccc2)cc1 (stereo not drawn)	-1.3	10%	i	-1.4	1	1	0.1	10	0.69
CCOC(=O)C1=c2/c(=C/c3ccncc3)c(N)c(C(=O)OC)n2C(=O)C(c2ccncc2)S1 (stereo not drawn)	-1.7	16%	i	1.2	8	5	-0.3	·	·
CCCCN1C[C@H](CSC)[C@@H](CC(=O)Nc2ccc(Br)cc2)C1=O	2.5	-3%	i	2.5	-30	-44	-9.7	·	·
CCN(c1ccccc1)S(=O)(=O)c1ccc(C(=O)NCc2ccccn2)cc1	-0.4	-1%	i	-4.6	1	5	-0.5	·	0.69
O=C(Nc1ccc(C(=O)O)cc1)/C(=C\c1ccccc1)NC(=O)c1ccco1	-0.7	·	i	1.1	4	3	0.1	·	0.69

Single entries from the entries so far.
Under rRNA inh HTS OD600, CCOC(=O)c1c(C)[nH]c(C)c1C(=O)COC(=O)c1cccs1 reads -24
Under rRNA inh HTS, C[C@H](CO)N1C[C@H](C)[C@@H](CN(C)Cc2ccncc2)OCCCC[C@H](C)Oc2ccc(NC(=O)CCCN(C)C)cc2C1=O reads 0&3
Under Vif A3G, CCn1cc(CN2CCC(C(=O)Nc3ccc(Oc4ccccc4)nc3)CC2)cn1 reads 1%

Additional entries follow.
SMILES	MLL AF4-AF9 inh	Vif A3G	FGF22 binding	HNF4A DNA FP	rRNA inh HTS	rRNA inh HTS OD600	rRNA inh HTS RFP	ALR H2O2 inh	E coli growth
Cc1ccc(C(=O)NCCNC(=O)COc2ccccc2Cl)cn1	-3.4	·	i	1.0	3	4	-1.6	3	0.59
CCOC(=O)C1CCN(C(=O)c2ccc3c(c2)S(=O)(=O)c2ccccc2C3=O)CC1	0.8	·	i	-0.5	-8	-7	-3.4	-8	0.69
Fc1ccccc1CN1CCCCCCC1	·	1%	·	-5.2	·	·	·	-2	0.71
O=C(NCC[C@H]1CC[C@@H](NS(=O)(=O)c2cccc(Cl)c2)[C@H](CO)O1)c1cnccn1	-0.3	·	i	·	4	5	-2.0	·	·
Cn1c(Cn2c(=O)sc3ccccc32)nnc1SCC(=O)NCc1ccc2c(c1)OCO2	5.1	12%	i	-4.7	-5	-7	-1.1	2	0.74
CC=Cc1ccc2n(c1=O)C[C@H]1[C@H](CO)[C@@H](C(=O)N[C@H](C)c3ccccc3)N(C(=O)c3cnccn3)[C@@H]21 (mixture of isomers)	-1.9	·	i	·	-1	-1	0.1	·	·
Cc1ccc(C(=O)NC(C)c2ccccc2)cc1Br (stereo not drawn)	-5.6	-13%	i	-3.3	9	5	2.7	-36	0.67
CC(C)c1ccc2oc(=O)cc(CN3CCN(Cc4ccccc4)CC3)c2c1	-0.3	-6%	i	2.7	-4	-7	-1.6	-5	0.65

Not all compounds are listed (hit frequency here may not be typical).
